Ecoli growth: inhibitors of Escherichia coli growth; AID 1053175; hit rate 0.21% among 330,000; OD600 absorbance (no concentration beside the values); OD600, 23 h; active compounds read low;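 active means OD600 absorbance below the run mean of sample wells minus 3.6 SD, in any replicate, cut at about 0.56 in these data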;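 further: stock transfer was 300 nL into about 60 µL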
FGF22 binding: binders of recombinant human FGF22 by thermal shift; hit rate 1.5% among 340,000; calls only at 9.99 µM; SYPRO orange fluorescence; percent of sucrose octasulfate shift, DMSO zero; Q9HCT0; AID 651658;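 active means melting point raised past a set limit in the mean and every replicate; three in four hits are not shown here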
HNF4A DNA FP: change in binding of human HNF4 alpha to DNA; P41235; HNF4a-FITC DNA binding, fluorescence polarization, 1 h; activity change, % at 10 µM; hit rate 0.3% among 360,000; in the data active means activity change above about 30%, passing the limit was not always enough;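 further: controls were the assay level and a saturating level of protein; the project sought stronger binding though the title names inhibitors; some compounds called inactive have numbers as strong as hits; positive values seem to mean higher polarization but the record does not say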
Target sequence (P41235 whole entry, looked up): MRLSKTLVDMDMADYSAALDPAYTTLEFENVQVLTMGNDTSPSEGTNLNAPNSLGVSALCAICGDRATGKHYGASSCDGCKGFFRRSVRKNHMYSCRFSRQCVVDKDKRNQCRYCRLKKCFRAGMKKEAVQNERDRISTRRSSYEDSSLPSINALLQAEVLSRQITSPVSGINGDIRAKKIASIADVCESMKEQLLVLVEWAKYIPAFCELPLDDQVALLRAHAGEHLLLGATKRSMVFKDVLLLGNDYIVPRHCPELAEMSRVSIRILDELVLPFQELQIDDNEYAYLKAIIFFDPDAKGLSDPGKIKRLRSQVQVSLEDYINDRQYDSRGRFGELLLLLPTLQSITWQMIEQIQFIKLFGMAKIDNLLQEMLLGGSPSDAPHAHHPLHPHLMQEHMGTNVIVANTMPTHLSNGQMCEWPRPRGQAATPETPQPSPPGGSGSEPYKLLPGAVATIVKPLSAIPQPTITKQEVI
ALR inh: human ALR oxidase inhibition via reduced H2O2; P55789; purified ALR, DTT oxidation, H2O2 HRP-luminol luminescence; inhibition, % (concentration not given with the values); hit rate 3.8% among 290,000; AID 485317;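 active means mean and each replicate at 75% or more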;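 further: stock transfer was 7.5 nL into about 7.5 µL; 0% = neutral wells and 100% = wells with inactivated enzyme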
Beta2AR agonist: human beta-2 adrenergic receptor agonism by FAP. P07550. Am2.2-beta2AR cells, FAP receptor internalization, flow cytometry; reference of the scale not given here. response, % (no concentration beside the values). hit rate 0.43% among 340,000. AID 504454;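 active means response above a set limit, near 3 SD of response in nonfluorescent compounds, cut at about 42% in these data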;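 further: stock transfer was 100 nL into about 11 µL; a reference agonist was the positive control; negative values mostly stem from fluorescent compounds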
Target sequence (P07550 whole entry, looked up): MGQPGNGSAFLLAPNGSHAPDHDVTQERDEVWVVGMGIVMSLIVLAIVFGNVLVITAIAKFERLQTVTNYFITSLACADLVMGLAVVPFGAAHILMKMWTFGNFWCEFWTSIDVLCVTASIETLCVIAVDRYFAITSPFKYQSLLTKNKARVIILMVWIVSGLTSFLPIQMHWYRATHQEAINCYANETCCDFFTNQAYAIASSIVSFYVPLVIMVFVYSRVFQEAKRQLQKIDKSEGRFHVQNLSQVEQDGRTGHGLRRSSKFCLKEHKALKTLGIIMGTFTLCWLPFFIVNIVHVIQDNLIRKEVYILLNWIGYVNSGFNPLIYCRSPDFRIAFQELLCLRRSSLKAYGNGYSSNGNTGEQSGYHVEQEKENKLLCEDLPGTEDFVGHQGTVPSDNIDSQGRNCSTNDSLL
UCH37 DUB inh: blocks the human deubiquitinase UCH37. Q9Y5K5. purified proteasome/UCH37, Ub-AMC cleavage fluorescence. inhibition, % (no concentration beside the values). hit rate 0.33% among 330,000. AID 588478;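 active means mean of two replicates above 20%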;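 further: 0% = compound-free wells with enzyme and 100% = wells lacking proteasome; stock transfer was 100 nL into about 20 µL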
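Schedule: 30 min plus 25 min, room temperature / Material: human UCH37 within purified proteasomes / Technique: AMC fluorescence intensity at 355/460 nm / Buffer or medium: pH 7.4 Tris-HCl (50 mM) with ovalbumin, ATP-MgCl2, DTT / Controls: wells without proteasome as full block, compound-free enzyme plus substrate as uninhibited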
LANA-H2A inh: blocks KSHV LANA binding to histone H2A/H2B | cell-free LANA-H2A/H2B peptide, fluorescence polarization | hit rate 0.6% among 320,000 | inhibition, % (no concentration beside the values) | AID 2629; in the data active means inhibition mostly above about 10%, no sharp cut-off; inactive means mostly below about 6.7%;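 further: stock transfer was 7.5 nL into about 10 µL; 0% = median of vehicle wells and 100% = median of positive control wells; one replicate is shown; the record names a cut of 25% in any replicate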
* hit, by the source's call; i = inactive; . = no result given; + = active, no number. Not all compounds are listed, so the mix of outcomes need not match the whole.

ALR inh	UCH37 DUB inh	HNF4A DNA FP	SMILES	FGF22 binding	Beta2AR agonist	LANA-H2A inh	Ecoli growth
-7.4	4.0	4.3	CCOC(=O)c1cnc(-c2ccccc2)nc1C(F)(F)F	i	14.5	2.8	0.719
4.2	2.2	12.1	Cc1ccc(CN2CCN(Cc3cnc(N(C)C)s3)CC2CCO)o1 (stereo unspecified)	i	-6.3	-2.7	0.7
-6.5	2.4	0.0	CC1CC[C@@]2(OC1)O[C@H]1CC3[C@@H]4C[C@@H](O)[C@@]5(O)C[C@@H](O)[C@H](O)C[C@]5(C)[C@H]4CC[C@]3(C)[C@H]1[C@@H]2C (stereo partly specified)	i	-0.7	2.7	0.7
-3.5	0.3	-0.2	Cc1nc(C)c(CCNC(=O)c2ccccc2)s1	.	1.8	3.1	0.678
-0.7	0.6	1.9	CSCCC(NC(=O)c1ccco1)C(=O)N1CCC(C(N)=O)CC1 (stereo unspecified)	i	-1.2	1.9	0.638
-2.7	-2.4	1.7	CC(C)COC(=O)C(C#N)c1nc2ccccc2nc1N1CCN(Cc2ccc3c(c2)OCO3)CC1 (stereo unspecified)	.	-2.3	0.2	0.746
99.0*	-0.1	-0.7	CC(=O)Nc1ccc(N2CCCCC2)cc1	.	2.1	1.3	0.609
.	1.5	4.6	O=C1CCc2cc(NS(=O)(=O)c3ccc(F)cc3)cc3c2N1CCC3	i	0.2	2.2	0.673
-3.7	4.9	-0.9	Cc1ccc(CN(C)C(=O)c2cccc(S(=O)(=O)N3CCc4ccccc43)c2)cc1	i	6.1	2.2	0.708
-5.3	2.0	1.9	O=S(=O)(NCc1cccs1)NCc1ccccc1F	i	0.5	-9.2	0.702
52.1	.	-2.8	C/C(=N\NS(=O)(=O)c1ccc(C)c([N+](=O)[O-])c1)c1cccs1	.	4.6	-0.7	.
.	.	2.2	CCCn1c(CCNc2nc(-c3cccc(Br)c3)cs2)nc2ccccc21	i	-23.2	.	.
12.1	1.6	-4.2	O=C(CN1CCCCC1)Nc1cc(Cl)ccc1Oc1ccccc1	i	4.7	-2.3	0.698
1.9	3.3	2.1	O=C1Nc2cc(C(=O)N3CCOCC3)ccc2S/C1=C\c1ccccc1	i	-0.6	4.9	0.718
.	1.3	55.2*	CCOC(=O)c1c(-c2ccc(C)cc2)csc1NC(=O)/C(C#N)=C/c1ccc(O)c(OC)c1	i	-219.7	.	0.731
12.8	.	2.6	CCOC(=O)NC(=S)Nc1ccc(C(C)(C)C)cc1	i	-2.4	-1.1	.
0.8	4.3	0.1	COc1ccc(NS(=O)(=O)c2ccc(F)c(F)c2F)cc1S(=O)(=O)N1CCOCC1	i	-3.5	2.4	0.681
-106.3	5.1	1.7	COCCN(CCOC)C(=O)c1ccc(SCc2ccc(C)cc2)c([N+](=O)[O-])c1	i	-3.2	-3.3	0.698
-24.7	4.0	-0.9	CCOC(=O)C(C)Sc1nnc(-c2c[nH]c3ccccc23)n1C (stereo unspecified)	i	-1.4	0.0	0.716
.	-3.1	2.8	CC1CN(C(=O)CNC(=O)Cc2cccc3ccccc23)CC(C)O1 (stereo unspecified)	i	-2.2	-8.8	0.675
-2.3	5.5	-0.3	COc1ccc(C(=O)Nc2ccc3c(c2)OCCO3)cc1Br	i	7.1	-1.1	0.669
-1.4	-0.6	2.1	O=C(CCN1CCCCC1)NCNC(=O)CCN1CCCCC1	.	-3.6	-2.1	0.696
.	i	3.2	COC(=O)c1c(C)c(C)nc(N)c1C#N	.	4.1	0.8	0.735
22.6	-67.4	4.0	CCC(C)Sc1cccc(-c2nc3ccc(Cl)cn3c2NCc2ccccc2)c1 (stereo unspecified)	.	7.0	5.9	0.781
.	1.7	1.7	CCOC(=O)C1CCN(C(=O)COC(=O)CN(C)S(=O)(=O)c2ccc(NC(C)=O)cc2)CC1	i	3.4	0.6	0.732
-17.2	1.1	-5.5	COCCn1c(-c2ccsc2)nc2c1c(=O)[nH]c(=O)n2CC(C)C	.	-10.5	2.9	0.718
-2.9	1.6	-0.3	COc1ccccc1-n1cnnc1SCC(=O)c1c[nH]c2ccccc12	i	-0.1	3.8	0.656
-12.6	1.6	1.6	O=[N+]([O-])c1cccc2c(S(=O)(=O)N3CCCCC3)cccc12	i	-5.9	11.5	0.682
0.7	1.5	-4.4	O=C(NCc1cn2ccccc2n1)c1ccc(Br)o1	i	-15.9	0.6	0.767
1.4	2.9	-0.8	COC(=O)c1ccccc1NC(=O)CSc1nc2c(c(=O)[nH]1)CCC2	i	3.1	0.2	0.656
-36.1	-68.6	2.0	C=CCNC(=O)C(C)N1c2cccc3cccc(c23)S1(=O)=O (stereo unspecified)	i	0.3	-3.7	0.616
4.6	5.8	2.5	COc1ccc(OC)c(CN2C(=O)c3ccccc3C2C(=O)NCC2CCCO2)c1 (stereo unspecified)	i	-0.9	-2.6	0.683
0.0	-1.3	2.7	Cc1sc2ncn(CC(=O)NCCCC(=O)N3CCC(C)CC3)c(=O)c2c1C	i	1.4	1.9	0.661
-4.0	-0.4	0.8	Cc1ccc(S(=O)(=O)NCC2CCC(C(=O)NCc3cccs3)CC2)cc1 (stereo unspecified)	i	-1.8	-1.6	0.742
4.0	4.6	-1.8	CNS(=O)(=O)c1cccc(C(=O)OCC(=O)Nc2ccc(Cl)cc2F)c1	i	-0.1	4.3	0.69
-11.5	-1.0	0.4	CCOc1ccc(C(=O)Nc2cccc(SC)c2)cc1	i	7.4	-5.8	0.651
70.8	-0.9	0.1	CCN(c1ccc(NC(=O)COC(=O)c2ccc([N+](=O)[O-])o2)cc1)C(C)C	i	-8.1	0.6	0.677
-7.2	2.9	-4.9	O=C1NC(=O)c2cc(Oc3ccc([N+](=O)[O-])cc3)ccc21	i	-4.1	-1.5	0.663
-4.9	4.7	-2.1	COc1ccc(CN2CCN(S(=O)(=O)c3ccccc3)CC2)cc1Br	.	4.8	0.4	0.704
.	3.5	4.7	O=S(=O)(c1ccc(Oc2ccc(Cl)cc2)c(S(=O)(=O)N2CCCCC2)c1)N1CCCCC1	.	1.9	0.9	0.759

Gathered by group: the compounds so far containing a cyano group.
ALR inh	UCH37 DUB inh	HNF4A DNA FP	SMILES	FGF22 binding	Beta2AR agonist	LANA-H2A inh	Ecoli growth
-2.7	-2.4	1.7	CC(C)COC(=O)C(C#N)c1nc2ccccc2nc1N1CCN(Cc2ccc3c(c2)OCO3)CC1 (stereo unspecified)	.	-2.3	0.2	0.746
.	1.3	55.2*	CCOC(=O)c1c(-c2ccc(C)cc2)csc1NC(=O)/C(C#N)=C/c1ccc(O)c(OC)c1	i	-219.7	.	0.731
.	i	3.2	COC(=O)c1c(C)c(C)nc(N)c1C#N	.	4.1	0.8	0.735

Other records.
ALR inh	UCH37 DUB inh	HNF4A DNA FP	SMILES	FGF22 binding	Beta2AR agonist	LANA-H2A inh	Ecoli growth
7.0	8.1	1.0	O=C(CCN1C(=O)S/C(=C\c2ccc(F)cc2)C1=O)Nc1ccc(C(=O)O)c(O)c1	i	-3.2	0.9	0.705
2.8	.	0.8	Cc1ccc2nc(CCl)[n+]([O-])c(-c3ccccc3)c2c1	i	-1.5	4.2	.
-10.3	-12.5	-0.8	Cc1ccc(-n2c(N)c(C(=O)Nc3c(C)n(C)n(-c4ccccc4)c3=O)c3nc4ccccc4nc32)cc1	i	68.0*	1.3	0.673
-8.0	.	-3.8	CC(OC(=O)CNC(=O)c1ccc2ccccc2c1)C(=O)NC1CCCCC1C (stereo unspecified)	i	-3.1	0.9	.
.	2.2	1.2	COc1cccc2c1C(=O)C[C@]1(CCCC[C@@H]1C)O2	i	3.2	-3.3	.
-1.0	-0.8	3.7	N=C1SC(c2ccccc2)C(=O)N1c1ncc(Cc2ccccc2Cl)s1 (stereo unspecified)	.	6.8	-1.3	0.694
-8.5	3.4	2.2	COC(=O)C1CN(C(=O)c2cccc(OC(F)F)c2)c2ccccc2O1 (stereo unspecified)	i	8.3	-3.6	0.706
-3.7	2.5	1.2	C[C@]12C(=O)N(c3ccc(F)cc3)C(=O)N1[C@H]1c3ccccc3OC[C@@H]1[C@H]2c1ccccc1	i	4.2	-3.1	0.796
70.3	6.9	4.1	O=C(C1=C(O)C(=O)N(CCN2CCOCC2)C1c1ccc(Br)cc1)c1cc2ccccc2o1 (stereo unspecified)	i	21.7	3.4	0.696
.	2.8	0.8	CCc1ccccc1NC(=O)CN1CCN(C(=O)c2ccc(OCc3cn4ccccc4n3)cc2)CC1	i	-3.8	.	0.686
-23.5	.	3.4	CC(OC(=O)c1ccc(Cl)nc1)C(=O)Nc1ccc(S(=O)(=O)N2CCCC2)cc1 (stereo unspecified)	i	-6.8	0.4	.
-7.8	4.5	1.2	Cc1cc(/C([O-])=C(/C(=S)Nc2ccc(F)cc2)[n+]2ccccc2)c(C)n1-c1ccc(F)cc1	.	9.1	-0.8	0.75
-11.5	-1.6	0.5	NS(=O)(=O)c1ccc(NC(CNS(=O)(=O)c2ccccc2)c2ccccc2)cc1 (stereo unspecified)	i	5.2	5.9	0.644
-2.2	8.5	1.6	CC1CCCCC1NC(=O)CSc1ccc([N+](=O)[O-])cc1 (stereo unspecified)	i	-4.1	3.1	0.665
44.2	-125.8	3.0	Nc1c2c(nc3ccccc13)N(C1CCCCC1)CC2	.	-3.1	-4.9	0.728
-9.2	1.4	3.7	NS(=O)(=O)c1ccc(NNC(=O)c2ccc(F)cc2F)cc1	i	9.5	-1.0	0.664
-61.0	-15.4	3.7	Cc1cc(N2CCN(C)CC2)nc2ccc(NC(=S)NCCCN3CCN(C)CC3)cc12	i	-1.3	-2.6	0.686
.	1.3	2.4	Cc1ccc(CC2SC(N)=NC2=O)cc1 (stereo unspecified)	i	25.9	4.0	0.649
-6.7	i	1.2	CCCN1CCN(CCCNC(=O)c2cc3c(s2)-c2c(C)cccc2OC3)CC1	i	25.7	-0.2	0.663
-4.2	7.1	-3.2	CC(=O)C1=C(O)C(=O)N(CO)C1c1ccccc1F (stereo unspecified)	i	-1.1	-5.9	0.688
9.9	6.4	3.3	Cc1ccc(S(=O)(=O)CCSc2nccn2C)cc1	i	-1.7	0.7	0.683
-3.3	2.2	1.7	NC(=S)N(c1ccccc1)c1ccccc1	i	-2.2	-3.5	0.678
1.0	-0.1	-2.4	COc1ccc(N2C(=O)CCC(C(=O)NCc3ccccn3)C2c2ccc(F)cc2)cc1 (stereo unspecified)	.	-2.7	-2.2	0.707
0.1	2.9	3.5	Cc1cccc(-c2nc(-c3ccncc3)no2)c1	i	-6.0	-7.6	0.616
.	2.0	-0.9	O=C(O)c1ccc(NC2CC(=O)N(Cc3ccccc3)C2=O)cc1 (stereo unspecified)	.	-3.3	0.1	0.676
-12.4	-3.1	1.6	O=C(NCC(c1cccs1)N1CCOCC1)c1cc(-c2ccc(F)cc2)nc2ccccc12 (stereo unspecified)	i	0.2	3.6	0.726
-0.9	-125.6	1.3	O=c1c2ccccc2[nH]c2ccc(F)cc12	+	1.4	-6.4	0.612
